# Source: PubChem (National Center for Advancing Translational Sciences (NCATS))
# NS1 inh: qHTS Assay for Inhibitors of Influenza NS1 Protein Function | S. cerevisiae slowed by influenza A NS1, growth recovery by OD600 | Potency, µM (titrated, usually from 46.1 µM), inactives show at the top dose activity, positive = more growth | 0.4% of 270,000 active; active means well fitted rising curve with a large enough effect; inconclusive means small, poorly fitted or top-dose-only effect; inactive means no such curve, though single readings can be large or run the other way; further: nearly all actives have a fitted effect of over 50% in size
#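 Read-out: OD600 growth recovery of NS1-expressing budding yeast. Cells grown overnight at 30C in -URA glucose medium, washed, resuspended and diluted 1:100 in 2% galactose assay medium, pH 6.0. Same strain lacking NS1 served as positive control.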
# Cruzain Triton: qHTS Assay for Promiscuous and Specific Inhibitors of Cruzain (with detergent) | 0.43% of 200,000 active | purified cruzain, Z-FR-AMC fluorescence, 0.01% Triton | Cruzipain (Trypanosoma cruzi), P25779 | Potency, µM, for the others: max response, negative = inhibition, most hits filed as inhibitors;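 further: plate controls were neutral wells for no effect and buffer without enzyme for full effect; nearly all actives have a fitted effect of over 40% in size; top concentration of the series not given in the record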
# Target sequence (P25779 123-467 limits assumed): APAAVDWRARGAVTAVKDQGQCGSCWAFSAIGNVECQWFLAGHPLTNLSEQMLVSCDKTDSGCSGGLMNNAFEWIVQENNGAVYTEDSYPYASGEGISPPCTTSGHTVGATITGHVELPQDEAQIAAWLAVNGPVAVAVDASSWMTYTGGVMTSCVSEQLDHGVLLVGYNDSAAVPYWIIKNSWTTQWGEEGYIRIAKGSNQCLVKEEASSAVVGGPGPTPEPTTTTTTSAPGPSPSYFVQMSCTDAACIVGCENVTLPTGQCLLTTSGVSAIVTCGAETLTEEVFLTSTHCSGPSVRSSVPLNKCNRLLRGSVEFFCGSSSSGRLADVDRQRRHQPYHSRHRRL
#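 Enzyme 1.5 nM, Z-FR-AMC 2 uM, NaOAc 100 mM pH 5.5, DTT 5 mM, Triton X-100 0.01%; 15 min RT compound preincubation; kinetic ex360/em450, 60 s delta.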
# StopGo reporter: High Throughput Screening for Foot and Mouth Disease Virus Antivirals | human cells with a luciferase reporter of 2A StopGo recoding; control for the full effect not named in the record | Potency, µM (doses to about 57.9 µM), for inactives: top-dose signal change, negative = less light | 1.2% of 410,000 active; active = well fitted falling curve with a large enough effect; inconclusive = small, poorly fitted or top-dose-only effect; inactive = no such curve, though single readings can be large or run the other way; tested in HEK293T cells; further: on the % scale 0 is the no-effect control and ±100 the full control effect; nearly all actives have a fitted effect of over 45% in size; luciferase light after 4 h
# Cruzain noTriton: qHTS Assay for Promiscuous and Specific Inhibitors of Cruzain (without detergent); Cruzipain (Trypanosoma cruzi), P25779; purified cruzain, Z-FR-AMC fluorescence, no detergent; Potency, µM, inactives show max response, negative = inhibition, usual class: inhibitors; 2.3% of 200,000 active;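 further: plate controls were enzyme without inhibitor for no effect and buffer without enzyme for full effect; nearly all actives have a fitted effect of over 40% in size; top concentration of the series not given in the record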
#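 Purified cruzain at 1.5 nM, pre-incubated 15 min with compound at room temperature in 100 mM sodium acetate pH 5.5, 5 mM DTT, 0.00005% Triton X-100. Reaction started with 2 uM Z-FR-AMC; AMC fluorescence increase over 60 s gives rate.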
# SARS PLpro yeast: qHTS of Yeast-based Assay for SARS-CoV PLP. S. cerevisiae expressing SARS-CoV PLpro, growth rescue; control for the full effect not named in the record. Potency, µM (top dose mostly 32.9 µM), for inactives: top-dose activity, positive = growth rescue. 0.19% of 330,000 active. AID 485353, 2010; active means well fitted rising curve with a large enough effect; inconclusive means small, poorly fitted or top-dose-only effect; inactive means no such curve, though single readings can be large or run the other way; further: 0% is about no effect; nearly all actives have a fitted effect of over 55% in size; growth read by luminescence after 48 h
# RE007 growth inh: qHTS Assay for Inhibitors of the HIV-1 protein Vpr | S. pombe RE007 Vpr strain, BacTiter-Glo ATP luminescence, 24 h; control for the full effect not named in the record | Potency, µM (highest dose often 92.2 µM), for the others: at the top dose activity change, negative = less growth | 0.21% of 360,000 active | AID 651644, 2012; active = well fitted falling curve with a large enough effect; inconclusive = small, poorly fitted or top-dose-only effect; inactive = no such curve, though single readings can be large or run the other way;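 further: on the % scale 0 is the no-effect control and ±100 the full control effect; nearly all actives have a fitted effect of over 50% in size; the assay follows cell death caused by Vpr and the record does not say whether a fall means rescue or toxicity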
#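 Fission yeast RE007 carrying one integrated HIV-1 vpr copy, seeded at OD 0.01 in PMG+AL medium with 23 nL pinned compound. Grown 24 h at 30 degrees; viability read by BacTiter-Glo luminescence after 5 min.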
# MARV entry inh: qHTS for inhibitors of binding or entry into cells for Marburg Virus; AID 540276, 2011; Potency, µM (series often up to 37.8 µM), inactives show top-dose activity change, negative = inhibition, hits mostly inhibitors; 1.8% of 300,000 active; Marburg virus pseudotyped entry inhibition, cell reporter; control for the full effect not named in the record; about a third of the inactives were read at about 46 µM; active = well fitted inhibition curve with a large enough effect; inconclusive = small, poorly fitted or top-dose-only effect, or effect the other way; inactive = flat fitted curve, though single readings scatter; tested in HEK293 cells; about a fifth of its hits are not listed in these tables; further: on the % scale 0 is the no-effect control and ±100 the full control effect; luciferase read-out
# LASV entry inh: qHTS for Inhibitors of binding or entry into cells for Lassa Virus; Lassa virus pseudotype entry inhibition, cell reporter; control for the full effect not named in the record; Potency, µM (highest dose often 37.9 µM), for the others: at the top dose activity change, negative = inhibition, usual class: inhibitors; 1.2% of 300,000 active; AID 540256, 2011; active means well fitted inhibition curve with a large enough effect; inconclusive means small, poorly fitted or top-dose-only effect, or effect the other way; inactive means flat fitted curve, though single readings scatter; tested in HEK293 cells; further: on the % scale 0 is the no-effect control and ±100 the full control effect; nearly all actives have a fitted effect of over 50% in size; luciferase read-out
# * hit, by the source's call; ? = inconclusive; · = not tested or not shown; [ ] = remark or other dose. Unless noted, the call rests on the fitted dose curve; in most records, active means well fitted curve in the direction sought with a large enough effect; inconclusive means small, poorly fitted or top-dose-only effect, or another doubt; inactive means no such curve, though single readings can be large; an effect the other way counts as inactive or inconclusive. Potency means the concentration at half of the fitted maximal effect. No enrichment for hits, and some 4.5% of all compounds hit somewhere here.
no.	mol	NS1 inh	Cruzain Triton	StopGo reporter	Cruzain noTriton	SARS PLpro yeast	RE007 growth inh	MARV entry inh	LASV entry inh
1	CC(C)(C)c1ccc(C(=O)Nc2sc3c(c2C#N)CCC(C(C)(C)C)C3)cc1 (stereo not given)	·	1.5%	-18%	1%	·	·	-22%[46.1 µM]	16%[46.1 µM]
2	C#CCOC(=O)C1C2C=CC(C2)C1C(=O)O (stereo not given)	-12%	5.9%	·	-5%	-2%	7%	22%	14%
3	Cn1c(=O)c2c(ncn2CCOc2ccc(Br)cc2)n(C)c1=O	3%	·	?	·	-1%	-14%	-24%[46.1 µM]	0%[46.1 µM]
4	CN(C)S(=O)(=O)c1ccc2c(c1)N(CC(=O)NCc1ccccc1)C(=O)C1CCCCN21 (stereo not given)	·	-1.9%	21%	2%	·	·	·	?
5	CCC(C)Sc1nc2c(c(=O)[nH]c(=O)n2C)n1Cc1ccccc1Cl (stereo not given)	-18%	-6.0%	-17%	-9%	-4%	9%	·	·
6	O=C(COC(=O)CNC(=O)c1ccccc1)Nc1ccc(Cl)cn1	·	·	-3%	·	2%	-6%	?	12%[46.1 µM]
7	COc1cc(CCC(=O)N2CCN(c3ccc([N+](=O)[O-])cc3)CC2)cc(OC)c1OC	-5%	·	-31%	·	-3%	-5%	·	·
8	CSc1ccc(C#N)cc1NC(=O)c1ccccc1C	·	·	-12%	·	1%	?	7%[46.1 µM]	22%[46.1 µM]
9	CC(=O)c1ccc(NC(=S)N2c3ccccc3CC2C)cc1 (stereo not given)	·	·	-22%	·	0%	0%	5%	-18%
10	COc1ccc(NC(=O)CNS(=O)(=O)c2cccc3nonc23)c(OC)c1	-8%	2.0%	7%	-12%	-3%	-1%	-7%	10%
11	Cc1ccc(C)c(N2CCN(c3cnn(-c4nc5ccccc5s4)c(=O)c3Cl)CC2)c1	-5%	3.4%	-33%	?	7%	-3%	?	-1%
12	O=C(NCCc1ccc(Cl)cc1)c1cnc2n(c1=O)CCS2	-33%	-4.7%	28%	5%	-10%	15%	·	·
13	Oc1cccc(C(Nc2nccs2)c2ccc3cccnc3c2O)c1 (stereo not given)	·	·	-10%	·	0.45µM*	-21%	?	?
14	CCOC(=O)c1[nH]c2ccc(Br)cc2c1NC(=O)CCN1CCC(C)CC1	-1%	-2.1%	-11%	-6%	5%	2%	?	?
15	CC(C)(C)N(Cc1ccccc1)C(=O)COc1cccnc1[N+](=O)[O-]	-1%	·	-7%	·	0%	-14%	·	·
16	Cc1nn2c(-n3ccnc3)c3c(nc2c1-c1ccccc1)CCC3	-74%	-1.1%	-24%	1%	-11%	-2%	22%	-2%
17	COc1ccc(CCNC(=O)C(=O)NCC(c2cccs2)S(=O)(=O)c2ccc(C)cc2)cc1 (stereo not given)	·	-3.3%	20µM*	-11%	·	·	·	?
18	O=C(O)c1cc(Br)ccc1NS(=O)(=O)c1cccc2nsnc12	?	·	35%[activator]	·	0%	14%	15%	-3%
19	COc1ccccc1-n1c(=O)c(C#N)c(-c2ccc([N+](=O)[O-])cc2)c2cc(C(=O)c3ccccc3O)cnc21	22%	·	-12%	·	0%	-3%	·	·
20	c1csc(COc2ccccc2CNC2CCCCC2)c1	-18%	-1.5%	-19%	-8%	-17%	-10%	?	?
21	COc1ccc(NC(=S)N2CCC(NC(=O)c3ccccc3C)CC2)cc1	-3%	·	-8%	·	0%	1%	?	-13%[46.1 µM]
22	O=C(CSc1ccc2nnc(-c3ccccc3)n2n1)NCC1CCCO1 (stereo not given)	4%	-1.9%	15%	14%	-9%	4%	8%	-1%
23	O=C1c2ccccc2NC(c2ccccc2)N1Cc1ccco1 (stereo not given)	5%	-9.1%	-22%	5%	-3%	15%	0%	9%
24	CC(=O)c1cccc(OCC(=O)c2cc(C)n(-c3cc(C)on3)c2C)c1	-14%	-5.2%	22µM*	-10%	-19%	-4%	-29%	-43%
25	Cc1ccc(N2CCCn3c2nc2c3c(=O)n(CC(=O)OCc3ccccc3)c(=O)n2C)cc1C	?	-1.5%	·	9%	2%	·	6%	·
26	COc1ccc(OC)c(-c2nc(Nc3ccccc3C)sc2CC(=O)O)c1	·	-9.4%	-7%	?	·	·	-4%[46.1 µM]	8%[46.1 µM]
27	COC(=O)Nc1ccc(S(=O)(=O)Nc2ccc(C)cc2)cc1	-6%	5.4%	·	5%	1%	·	-2%	·
28	Cn1cnnc1SCC(=O)Nc1ccc(Cl)c(S(=O)(=O)N2CCOCC2)c1	7%	·	-4%	·	2%	-9%	·	·
29	CC(C)CN(C(=O)COC(=O)CSc1ccccc1F)c1c(N)n(Cc2ccccc2)c(=O)[nH]c1=O	·	·	-18%	·	3%	-16%	?	1%
30	Cc1[nH]c2ccccc2c1C(=O)C(=O)N1CC(C)OC(C)C1 (stereo not given)	-8%	·	-7%	·	-4%	17%	10%	-18%
31	CCCCP(=O)(O)c1ccccc1	14%	5.8%	-6%	-6%	5%	12%	15%	17%
32	CC1CCN(C(=O)CN2C(=O)NC3(CCCc4ccccc43)C2=O)CC1 (stereo not given)	·	·	-14%	·	5%	9%	-3%	-4%
33	CCOC(=O)c1c(NC(=O)Nc2ccc(Cl)cc2)sc(C)c1C	2%	-0.8%	-2%	25µM*	-1%	3%	?	-2%
34	CCOc1ccccc1N(CC(=O)NC1CCCC1)C(=O)CCC(=O)Nc1cc(C)on1	-6%	-0.2%	3%	-7%	1%	1%	22%[46.1 µM]	15%
35	O=C(C1CC(=O)N(C2CCCCC2)C1)N1CCC2(CC1)OCCO2 (stereo not given)	-3%	1.2%	0%	6%	1%	14%	9%	9%
36	CCC(C(=O)NC1CCCC1)N(C(=O)Cn1nnc(-c2ccc(C)o2)n1)C(C)(C)C (stereo not given)	-1%	2.3%	-11%	-3%	5%	-10%	?	0%
37	CCN(CC)C(=O)CC(c1ccc(N(C)C)cc1)c1c(OC)cc(OC)c2c(-c3ccccc3)cc(=O)oc12 (stereo not given)	-33%	·	46%[activator]	·	-3%	-4%	·	·
38	COc1ccc(C(=O)Nn2c(SCc3ccc([N+](=O)[O-])cc3)nc3ccccc3c2=O)cc1	?	5.5%	-26%	32µM*	1%	29%	?	?
39	O=[N+]([O-])c1ccc(Nc2nc(N3CCOCC3)nc(N3CCOCC3)n2)cc1	·	·	-27%	·	·	2%	?	10%
40	O=C(NCc1ccco1)c1ccc(CS(=O)(=O)c2cccc(C(F)(F)F)c2)o1	16%	2.9%	-17%	1%	-1%	15%	3%	-16%
41	CCCCC(=O)Nc1ccccc1N1CCN(c2ccc(F)cc2)CC1	-34%	·	?	·	-6%	-3%	11µM*	?
42	C/C(=N\N(c1ccccc1)c1ccccc1)c1ccco1	·	·	0%	·	0%	-15%	0%[46.1 µM]	8%[46.1 µM]
43	O=C(COC(=O)C1CC(O)CN1S(=O)(=O)c1ccc(Cl)cc1)c1ccccc1Cl (stereo not given)	-3%	-4.4%	22%	10%	4%	26%	-3%	0%
44	O=S(=O)(c1cccc(NC(=S)N2CCN(c3cccc(Cl)c3)CC2)c1)C(F)F	-5%	-2.0%	?	20%	0%	4%	?	?
45	O=C(c1cccc(S(=O)(=O)N2CCCCC2)c1)N(CCc1ccccc1)Cc1ccccc1	·	·	8%	·	-1%	-2%	?	?
46	CC1CC(=O)NN=C1c1ccc(NCCO)c([N+](=O)[O-])c1 (stereo not given)	-6%	-6.2%	-20%	-3%	1%	5%	-9%	40%[14.3 µM]
47	CC1(C)NC(=O)N(CC(=O)OCc2cc(=O)n3cc(Br)ccc3n2)C1=O	·	·	-12%	·	1%	5%	?	?
48	O=C(Nc1ccc(S(=O)(=O)NCc2ccco2)cc1)c1ccc(F)cc1	1%	·	37%[activator]	·	1%	0%	8%[46.1 µM]	·
49	CCCC1=C(C(=O)OCC)C(c2sccc2C)n2ncnc2N1 (stereo not given)	-1%	·	-25%	·	0%	13%	·	·
50	CC(=O)N1CCN(S(=O)(=O)c2cccc(C(=O)OCc3cccc(F)c3)c2)CC1	·	·	?	·	2%	-18%	?	-12%
51	NC(=O)c1c(NC(=O)CS(=O)(=O)c2ccc(Cl)cc2)sc2c1CCCCC2	·	1.9%	9%	10%	·	·	·	0%[46.1 µM]
52	COC(=O)c1ccc(Cn2cnc3nc4c(cc3c2=O)CCCC4)cc1	·	-1.5%	4%	-5%	·	·	·	26%[46.1 µM]
53	CN(C)C(CNC(=O)c1ccc2ccccc2n1)c1ccccc1 (stereo not given)	3%	·	-9%	·	4%	-3%	-17%[46.1 µM]	1%
54	O=C(Nc1nc(SCc2ccc(F)cc2)ns1)c1ccco1	-50%	-13%	37%[activator]	-13%	-110%	?	?	?
55	COCCn1nnnc1C(c1ccc(C)cc1)N1CCN(Cc2ccc3c(c2)OCO3)CC1 (stereo not given)	-4%	4.4%	-11%	19%	3%	7%	?	1%
56	CCOC(=O)C(=O)Nc1nccs1	0%	·	-9%	·	0%	14%	·	·
57	CC(=O)Nc1ccc(NC(=O)c2ccc(Cl)nc2)cc1	-5%	·	8%	·	-1%	-7%	·	·
58	O=C(NCCc1ccncc1)Nc1cccc(Cl)c1	18%	2.2%	-1%	1%	0%	8%	3%	-1%
59	Cc1cc(Cl)c2c(c1)[C@]1(C(=O)N2)[C@@H]2C(=O)N(Cc3ccccc3)C(=O)[C@@H]2[C@@H]2CCCN21	-56%	-5.9%	?	-4%	-2%	25%	?	?
60	O=S(=O)(NCc1ccccc1)NCc1ccccc1F	·	·	49%[activator]	·	0%	-13%	20%[46.1 µM]	-10%[46.1 µM]
